S aureus helic = inhibitors of S. aureus replicative helicase, primary screen, biochemical, fluorescence unwinding readout; purified S. aureus helicase, fluorescence unwinding assay; about half of the hits fall short of the stated cut; 120,000 compounds, 0.05% hits; inhibition, %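 (tested at about 80 µM)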;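 active = both duplicates at 50% or more, or one of them with a favoured structure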;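 also: 0% = mean of negative control wells and 100% = mean of positive control wells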
MgrA DNA FP = S. aureus MgrA activity modulators, primary screen, biochemical, S. aureus Newman, fluorescence polarization; MgrA-DNA binding; AID 602314, 2012; inhibition, %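 (about 10 µg/mL by stock and volumes)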; 84,000 compounds, 0.13% hits;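 active = above 50% in either of two replicates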;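 also: 0% = protein plus DNA without compound and 100% = DNA alone without protein; higher means less MgrA bound to DNA so lower polarization; one replicate is shown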
The depositor's hits bear a star; . = no result given; & = joins results of further samples. Only part of the results is shown, so the mix of outcomes need not match the whole.

SMILES	S aureus helic	MgrA DNA FP
CC1(C)C/C(=N\O)C(C(O)c2ccccc2)C(C)(C)N1 (stereo unspecified)	10	-1.4
CC(Nc1ncnc2sc3c(c12)CCC3)C(=O)O (stereo unspecified)	3	-1.3
CC(Nc1ccc(Br)cc1)C(=O)Nc1cccc(Cl)c1Cl (stereo unspecified)	-4	-0.5
CC1=NOC2(O)CC3C(C12)C3(C)C (stereo unspecified)	2	1.0
Cc1ccccc1-c1nnc(NC(=O)CC(C)C)s1	6	1.1
O=[N+]([O-])c1ccsc1NCc1ccccc1	.	2.0
O=C(c1ccc(F)cc1)n1c(NCc2ccccc2)n[nH]c1=S	-3	2.3
Cc1ccc(NC(=O)c2ccc3nc(N4CCOCC4)sc3c2)cc1	8	.
CCOC(=O)c1c(-c2ccc(Cl)cc2)nn2c1NCN(CCc1ccccc1)C2	1	9.9
COC(=O)C1C2C=CC3(CN(CCc4ccccc4)C(=O)C13)O2 (stereo unspecified)	16	.
CCc1ccc(Sc2cc(C(=O)NCc3cccnc3)c3ccccc3n2)cc1	5	-0.8
COc1cccc(-n2c(CNC(=O)OC(C)(C)C)n[nH]c2=S)c1	16	-0.4
Cc1ccc(C(=O)NCCN2CCCC2)cc1	9	-5.2
O=C(CC1SC(=NC2CC2)NC1=O)Nc1ccc(Oc2ccccc2)cc1 (stereo unspecified)	-7	.
CC1(C)C(c2ccccc2)=NC(c2ccccc2)N1O (stereo unspecified)	2	1.2
COc1ccc(CC(=O)NC2CCN(Cc3nnnn3C(C)(C)C)CC2)cc1OC	0	-8.1
CCCC1=NN(C(=O)/C=C/c2cccs2)C(=O)C1Cc1c(F)cccc1Cl (stereo unspecified)	.	-1.5
S=C(Nc1cccc2ccccc12)N1CCOCC1	.	5.3
COc1ccc(C2(C(=O)NCCN3CCOCC3)CCCC2)cc1	16	.
CC(C)C(=O)Nc1ccc(Cl)cc1	.	-0.1
CNc1ccc2cccc(O)c2n1	13	2.6
O=C(NNC1=NCCC1)C1CC1	-6	.
CCOC(=O)c1cc(CC)sc1NC(=O)c1cccnc1Oc1ccccc1	.	-0.4
O=C1c2ccccc2S(=O)(=O)N1Cc1ccccc1	.	1.0
COc1ccc(C(=O)Oc2cccnc2)cc1OC	-15	.
The listing continues.
SMILES	S aureus helic	MgrA DNA FP
CS(=O)(=O)c1ccc(C(=O)Nc2ccc3sccc3c2)cc1	12	.
CC(=O)Nc1ccc(C)cc1[N+](=O)[O-]	.	1.1
CCc1n[nH]c(=S)n1/N=C/c1c(C)nn(-c2cccc(Cl)c2)c1Cl	-16	.
N#C/C(=C\Nc1ccc(F)c(Cl)c1)S(=O)(=O)Cc1ccco1	.	0.7
C=CCn1c(NCc2ccc3c(c2)OCO3)nc2ccccc21	1	.
CSC1=N/C(=C\c2ccccc2O)C(=O)N1Cc1ccco1	-25	.
CCCOc1ccccc1/C=N/NC(=S)Nc1ccc(C)c(C)c1	.	2.6
CCN1CCCC1CNC(=O)c1nnc(Cc2ccc(F)cc2)o1 (stereo unspecified)	-8	.
Cc1ccc(S(=O)(=O)n2nc(C(F)(F)F)c3cnccc32)cc1	.	-2.0
COc1ccc(/C=C2/N=C(SC)NC2=O)cc1OC	2	.
Cc1ccc(S(=O)(=O)CCc2nnc(NC(=O)c3ccc(C)c([N+](=O)[O-])c3)s2)cc1	.	-0.9
Oc1ccccc1/C=N/c1ccnn1-c1ccccc1	7	.
c1ccc2sc(SCCCN3CCCCC3)nc2c1	10&0	.
COc1ccc(OCC(=O)NC2CCCCC2)cc1	1	-0.8
CCc1cccc(OCCCN2CCN(C)CC2)c1	-10	-2.7
CC1CCc2c(sc3nc(CN(C)C)[nH]c(=O)c23)C1 (stereo unspecified)	5	.
COc1ccc(CNC(=O)COc2cc(=O)n(C)c3ccccc23)cc1	15	.
O=C(COC(=O)Cc1cccc(C(F)(F)F)c1)Nc1ccccc1	-3	-1.4
COc1ccc(OC)c(NC(=O)C2CCCN2C(=O)C2CCC(C)CC2)c1 (stereo unspecified)	14	.
CCCc1cc(=O)[nH]c(SCC(=O)Nc2cc(Cl)cc(Cl)c2)n1	.	-2.9
CCN(C(=O)c1ccc(C(=O)N(CC)c2ccccc2)cc1)c1ccccc1	3	-1.4
CCN1C=CC2=C(C#N)C(N)C(C#N)(C#N)C(c3ccccc3C(F)(F)F)C2C1 (stereo unspecified)	1	11
O=C(Cn1cnc(S(=O)(=O)N2CCCCC2)c1)N1CCc2ccccc21	4	.
CCN=c1sc(C(=O)Nc2ccccc2)c(C)n1CC	-6	.
O=C(O)C1CC(=O)N(Cc2ccccc2Cl)C1 (stereo unspecified)	.	1.8

Three compounds out of the list, ordered by SMILES length, largest number first:
SMILES	S aureus helic	MgrA DNA FP
Cc1ccc(S(=O)(=O)CCc2nnc(NC(=O)c3ccc(C)c([N+](=O)[O-])c3)s2)cc1	.	-0.9
Cc1ccc(S(=O)(=O)n2nc(C(F)(F)F)c3cnccc32)cc1	.	-2.0
CC1(C)C/C(=N\O)C(C(O)c2ccccc2)C(C)(C)N1 (stereo unspecified)	10	-1.4

Additional records:
SMILES	S aureus helic	MgrA DNA FP
CC(C)NC(=O)CSc1nc(-c2ccccc2)cn1N	4	.
CC(C)(C)NSc1nc2ccccc2s1	5	4.0
O=C(Nc1cccc2cccnc12)c1ccc(Br)o1	7	-1.1
Cc1nn(-c2ccccc2)c(Cl)c1C(=O)OCC(=O)N1CCCC1	-7	.
CCn1c(C)nc2c(=O)oc3ccccc3c21	8	1.2
COc1ccccc1/C=N/n1cnnc1SCC(C)(C)NS(=O)(=O)c1ccc(C)cc1	-10	.
CC1(C)CC(=O)C(C=NCCN2CCN(CC(=O)Nc3ccccc3)CC2)=C(O)C1	-35	.
Cc1cc(NS(=O)(=O)c2ccccc2)cc(S(=O)(=O)c2ccccc2)c1O	8	2.0
O=c1oc2ccccc2cc1-c1nc2ccccc2s1	.	0.0
CCOc1nc(S(=O)(=O)c2ccc(C)cc2)c(Cl)s1	-11	.
CCn1c(SCC(=O)NC2CCCCC2)nc2ccccc21	8	.
O=C(CC1SC(=Nc2ccccc2)N(C2CC2)C1=O)Nc1cccc(Cl)c1 (stereo unspecified)	-17	.
N/C(=N\O)c1cccc(CS(=O)(=O)c2ccc(Cl)cc2)c1	.	-1.7
CC[n+]1c(C)csc1Nc1c(C)cc(C)cc1C	.	-4.0
CCCC(=O)c1cc(F)c(N2CCOCC2)cc1C	-5	0.2
O=C1CCc2cc(S(=O)(=O)NC(Cc3ccccc3)C(=O)N3CCn4c3nc3ccccc34)ccc2N1 (stereo unspecified)	-19	.
Cc1ccc(NCn2nnc3ccccc32)c(Br)c1	2	.
Cc1ccc2oc(=O)c3cnn(CC(=O)NC(C)C)c3c2c1	16	-0.4
Cc1csc(=O)n1CC(=O)OCC(=O)c1ccc(C(C)(C)C)cc1	-12	.
CCn1c(SCCN2CCOCC2)nnc1C1CCCCC1	3	-2.5
Cc1ccc(OCc2nc(SCC(=O)NCC(F)(F)F)n[nH]2)cc1	2	.
Cc1noc(C)c1COC(=O)CC1Sc2ccccc2NC1=O (stereo unspecified)	3	.
CCN1C=C(C(=O)OC)C(c2cc3c(cc2Br)OCO3)C(C(=O)OC)=C1	-12	-4.8
O=C1c2ccccc2C(=O)N1Cc1ncc(-c2ccccc2)o1	-7	.
COc1ccccc1N1CCN(C(=O)c2cccc([N+](=O)[O-])c2)CC1	.	-2.5

An excerpt of these results, with values under each structure.
Below each compound – S aureus helic	MgrA DNA FP
CC1(C)CC(=O)C(C=NCCN2CCN(CC(=O)Nc3ccccc3)CC2)=C(O)C1
 : -35	.
Cc1cc(NS(=O)(=O)c2ccccc2)cc(S(=O)(=O)c2ccccc2)c1O
 : 8	2.0
O=c1oc2ccccc2cc1-c1nc2ccccc2s1
 : .	0.0
CCOc1nc(S(=O)(=O)c2ccc(C)cc2)c(Cl)s1
 : -11	.

New compounds follow
SMILES	S aureus helic	MgrA DNA FP
CC1(C)c2ccccc2N(CCC(N)=O)C12C=Cc1c(ccc3ccccc13)O2 (stereo unspecified)	.	-0.7
CS(=O)(=O)N1CCC(c2nc(-c3ccc(S(=O)(=O)NCC4CCCO4)cc3)no2)CC1 (stereo unspecified)	9	-2.6
CCCN(CCC)C(=O)CSc1nc2ccsc2c(=O)n1-c1ccc(Br)cc1	6	-0.4
Cc1cccc2cc(CN(C(=O)c3ccco3)C3CCCC3)c(=O)[nH]c12	-4	0.8
CSC1=N/C(=C\c2ccccc2Cl)C(=O)N1	10	-1.0
CC(=O)Nc1cc(C(=O)NCCc2ccc(C)cc2)ccc1Sc1ccc(C)cc1	9	-2.3
Cc1ccc(CCC2C3=C(CCCC3=O)OC3=C2C(=O)CCC3)cc1	12	-7.2
CC(=O)Nc1cc2nn(-c3ccccc3)nc2cc1C	4	-2.8
COC(=O)c1c(C)nc(C)c(C(=O)OC)c1-c1cccs1	.	0.6
COc1ccc(NC(=O)c2cccc(S(=O)(=O)N3CCCC3)c2)c(OC)c1	-5	.
COC(=O)c1cc(OC)c(OC)cc1NC(=S)N1CCN(C(=O)c2ccco2)CC1	4	-0.8
CSc1nc(NC(N)=S)nc(NC(C)C)n1	12	-2.8
C=CCc1c(C)[nH]c2ccccc2c1=O	10	1.5
Cc1cc(C(=O)OCC(=O)N2CC3(C)CC2CC(C)(C)C3)c(C)o1 (stereo unspecified)	-1	.
Cc1cc(C)c(-n2cccc2CN)c(C)c1	3	-1.8
O=C(NC(=S)Nc1cccc(C(F)(F)F)c1)c1ccccc1	-11	2.2
CCNc1ccc2c(cc1=O)[C@@H](NC)CCc1cc(OC)c(OC)c(OC)c1-2	-11	.
COc1ccc(OC)c(CCNC(=O)Cn2cccc2C(=O)c2ccccc2)c1	1	-0.1
CC1=C(C(N)=O)C(c2ccco2)C(C(N)=O)=C(C)N1	18	-0.7
O=C(NC1CCN(C(=O)C2CCCCC2)CC1)c1ccccc1	14	.
COc1nc(N(c2ccccc2)c2ccccc2)nc(-n2ccnc2)n1	13	.
C=CCn1c(SCC2=C(C(=O)OCC)C(C)NC(=O)N2)nnc1C1CCCCC1 (stereo unspecified)	28	.
Cc1ccc(-c2nnc(CCC(=O)NN)o2)cc1	-2	.
S=c1nc[nH]c2c1oc1ccccc12	23	3.4
N#Cc1ccc(C=Nc2cccc3c(N=Cc4ccc(C#N)cc4)cccc23)cc1	6	-0.2
Further records.
SMILES	S aureus helic	MgrA DNA FP
CCN(C(=O)CSc1nc2sc3c(c2c(=O)n1C)CCCC3)C1CCS(=O)(=O)C1 (stereo unspecified)	25	.
CC1=C(C)C(=O)C(CCCCC#CCCCC#CCO)=C(C)C1=O	.	3.0
CC(C(=O)N1c2ccccc2Sc2ccccc21)N1C(=O)c2ccccc2C1=O (stereo unspecified)	19	.
O=P(c1ccc2c(c1)OCCO2)(N1CCOCC1)N1CCOCC1	-2	.
Cc1ccccc1NC(=O)c1cc(C)n(Cc2cccs2)c1C	-18	.
Cc1ccc(-c2cn3cccc(C)c3n2)cc1	-31	-1.9
Cc1cc(C)n(CCC(=O)NC2CCCCCC2)n1	7	.
C/C(N)=C(/C#N)C(=O)CSc1nnc2sc3ccccc3n12	4	.
CC1CCc2c(sc(N)c2C(=O)Nc2ccc(Cl)cc2)C1 (stereo unspecified)	3	4.8
COc1cccc(C(=O)N2CCCCC2C)c1 (stereo unspecified)	10	-3.0
Cc1oc(-c2ccccc2F)nc1CS(=O)(=O)CC(=O)NC1CCCC(C)C1C (stereo unspecified)	-13	.
FC(F)(F)c1ccc(-c2n[nH]c(=S)o2)nc1	-18	.
O=C(NCCN1CCN(c2ncnc3sc4c(c23)CCCC4)CC1)c1ccco1	9	.
N#Cc1ccc(NC(=O)C2CCCO2)cc1 (stereo unspecified)	12	-1.8
CC(C)OC(=O)CSc1ncnc2c1cnn2-c1ccccc1	18	-2.0
Cc1[nH]c2ccc(C(=O)OCC(=O)N3CCN(c4ccccc4)CC3)cc2c1C	14	.
COc1ccc(OC)c(S(=O)(=O)N2CC(C)OC(C)C2)c1 (stereo unspecified)	11	1.9
S=C(NCC1CC1)Nc1cccnc1	.	3.9
CCC(=O)c1c[nH]c(C(=O)NCCCn2ccnc2)c1	.	0.9
CC1(C)CC2CC(C)(CN2C(=O)COC(=O)c2ccc(Cl)c(N)c2)C1 (stereo unspecified)	4	0.9
CS(=O)(=O)N1CCN(Cc2ccccc2)CC1	2	-0.4
N#C/C(=C(/O)CSc1nncn1-c1ccccc1)c1nc2ccccc2[nH]1	4	.
COc1ccc(NC(=O)Nc2ccc3c(c2)C(=O)OC3)cc1	4	2.6
c1ccc2oc(CSc3ccc4c(c3)OCCO4)nc2c1	-4	.
O=C(NCC(O)c1ccccc1)c1ccccc1 (stereo unspecified)	.	-1.6

Complete entries as entered above.
CC1(C)CC2CC(C)(CN2C(=O)COC(=O)c2ccc(Cl)c(N)c2)C1 (stereo unspecified) reads S aureus helic = 4; MgrA DNA FP = 0.9
Cc1cc(C)n(CCC(=O)NC2CCCCCC2)n1 reads S aureus helic = 7; MgrA DNA FP = .
O=C(NCC(O)c1ccccc1)c1ccccc1 (stereo unspecified) reads S aureus helic = .; MgrA DNA FP = -1.6

Following part
SMILES	S aureus helic	MgrA DNA FP
Cc1cc(C(=O)NCC2CCN(C3CCCC3)C2)nc2c1c(C)nn2-c1ccccc1Cl (stereo unspecified)	5	7.8
COc1cc2c(cc1OC)C(C)N(S(=O)(=O)c1cn(C)cn1)CC2 (stereo unspecified)	14	.
Cn1c2ccccc2c2nnc(SCCN3CCCCC3)nc21	35	-1.1
Cn1c(SCCS(=O)(=O)c2ccc(Cl)cc2Cl)nnc1-c1ccco1	8	.
N#Cc1c(N)n[nH]c1-c1cc2c([nH]1)CCCC2	3	-2.7
Cc1nc(C)c(NC(=O)OC(C)C)cc1NC(=O)OC(C)C	-9	.
O=C(O)C1CN=C(c2ccccc2)N1 (stereo unspecified)	18	.
CC(C)(C)c1ccc(C(=O)Nc2ccon2)cc1	21	-2.0

From PubChem BioAssay
